Measles inh = inhibitors of measles virus growth in infected cells. infected Vero cells, GFP fluorescence, 64 h; active compounds read low. z-score (test concentration not listed). 33,000 tested, 0.1% active. AID 745;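 active = z-score under -3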;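 also: score is relative to mean and SD of the compound wells of a plate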
Active calls of the source: *.

SMILES	Measles inh
CCOC(=O)C(Cc1c(C)[nH]c2ccccc12)C(=O)OCC	0.35
O=C1OC(Nc2ccc(S(=O)(=O)Nc3ccccn3)cc2)c2ccccc21 (stereo not drawn)	0.58
Cc1ccccc1Nc1c(-c2ccc(N(C)C)cc2)nc2ncccn12	1.1

A section from the list above:
SMILES	Measles inh
O=C1OC(Nc2ccc(S(=O)(=O)Nc3ccccn3)cc2)c2ccccc21 (stereo not drawn)	0.58
Cc1ccccc1Nc1c(-c2ccc(N(C)C)cc2)nc2ncccn12	1.1

A portion of the library; count on the stated rates, not on these rows.
